# EPAC2 antag: Validation qHTS for antagonist of cAMP-regulated guanine nucleotide exchange factor 4 (EPAC2); AID 1645886, 2021; Potency, µM (doses to about 112 µM), without a hit: top-dose activity, negative = inhibition, hits mostly inhibitors; Rap guanine nucleotide exchange factor 4 (Homo sapiens), Q8WZA2; 16,000 tested, 1.7% active; EPAC2 Rap1B BODIPY-GDP exchange, fluorescence; active = well fitted inhibition curve with a large enough effect; inconclusive = small, poorly fitted or top-dose-only effect; inactive = no such curve, though single readings can be large or run the other way;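 note: 100% = activation by cAMP agonist control; nearly all actives have a fitted effect of over 40% in size; the record reuses the description of the EPAC1 agonist screen; inactives centre near -10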
# Target sequence (Q8WZA2 whole entry, looked up): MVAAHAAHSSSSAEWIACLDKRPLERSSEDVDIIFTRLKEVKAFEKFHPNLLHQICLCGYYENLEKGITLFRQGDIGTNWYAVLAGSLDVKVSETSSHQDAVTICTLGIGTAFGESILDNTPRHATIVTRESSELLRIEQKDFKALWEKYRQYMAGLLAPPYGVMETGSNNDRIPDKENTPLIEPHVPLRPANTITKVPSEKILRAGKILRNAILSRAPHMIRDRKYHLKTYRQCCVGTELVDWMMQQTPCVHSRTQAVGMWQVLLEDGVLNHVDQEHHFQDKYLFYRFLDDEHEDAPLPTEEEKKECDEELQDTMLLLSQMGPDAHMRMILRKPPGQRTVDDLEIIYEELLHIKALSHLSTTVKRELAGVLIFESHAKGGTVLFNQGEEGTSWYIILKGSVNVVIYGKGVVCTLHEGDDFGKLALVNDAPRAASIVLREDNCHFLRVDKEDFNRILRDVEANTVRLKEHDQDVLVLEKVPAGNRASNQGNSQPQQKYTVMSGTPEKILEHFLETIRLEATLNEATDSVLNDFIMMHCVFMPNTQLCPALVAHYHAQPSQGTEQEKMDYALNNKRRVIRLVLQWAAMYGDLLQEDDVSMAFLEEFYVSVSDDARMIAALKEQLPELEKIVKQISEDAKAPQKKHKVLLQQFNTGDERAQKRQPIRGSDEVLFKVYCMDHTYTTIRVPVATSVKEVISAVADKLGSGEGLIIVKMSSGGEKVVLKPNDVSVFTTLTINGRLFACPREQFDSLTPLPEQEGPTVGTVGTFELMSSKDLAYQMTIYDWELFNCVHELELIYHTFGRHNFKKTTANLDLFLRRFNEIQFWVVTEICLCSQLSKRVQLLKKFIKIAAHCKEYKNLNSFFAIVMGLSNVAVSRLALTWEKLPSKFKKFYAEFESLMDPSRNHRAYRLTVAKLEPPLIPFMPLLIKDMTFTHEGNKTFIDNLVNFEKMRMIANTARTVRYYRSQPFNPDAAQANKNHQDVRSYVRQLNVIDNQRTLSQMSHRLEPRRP
#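 Normalized against a 6.5 mM cAMP agonist control, compounds were tested on 100 nM EPAC2 exchanging Rap1B-bound BODIPY-GDP (250 nM) for 50 uM GDP. Fluorescence drop (ex 480, em 540 nm) was tracked at room temperature over 30 min at 5-min intervals.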
# * = called active by the depositor; ? = inconclusive; & = joins results of further samples; [ ] = remark or other dose. Potency is the fitted concentration of half-maximal effect. A portion of the library; rates above refer to the full screens.
Compound,EPAC2 antag
NC(=O)c1cc[n+](CC2=C(C(=O)O)N3C(=O)[C@@H](NC(=O)[C@@H](c4ccccc4)S(=O)(=O)[O-])[C@H]3SC2)cc1,36%[activator]
CCc1nc2cc(C(=O)N3CCCN(C=O)CC3)cc(NC(=O)c3ccccc3OC)c2n1C,-26%
COCc1c(C(=O)N2CCN(C3CCCC3)CC2)cnn1-c1ncc2c(n1)-c1ccccc1CCC2,-6%
O=c1c(-c2cccs2)nc2cncnc2n1C1CC1,-8%
O=S1(=O)CCOC[C@H](CC2CCCCC2)N1Cc1ccc(Cl)cc1,-24%
Cc1ncc([N+](=O)[O-])n1CC(C)O (stereo not given),-10%
CCCCCCCCCC[n+]1ccc(/C=C/c2c[nH]c3ccccc23)c2ccccc21,-9%
N#Cc1cccc(-c2nc(NCc3ccccc3)c3ccccc3n2)c1,-20%
CN(Cc1ccco1)c1ncnc2ccc(-c3ccc4c(c3)OCO4)cc12,35µM*
CN1CCN(c2ncncc2-c2ccc(C(=O)N(C)C)cc2)CC1,-11%
CS(=O)(=O)N1CCC[C@@]2(CCN(Cc3ccc(C#N)cc3)C2)C1,-3%
COc1cccc(-c2ccc3ncnc(Nc4ccccc4)c3c2)c1,-25%
CC(C)=CCC1C(=O)N(c2ccccc2)N(c2ccccc2)C1=O,?
COc1c2occc2cc2ccc(=O)oc12,16%&-17%&-12%
Cc1ccc2c(n1)Oc1ccc(C(C)C(=O)OCC(=O)N(C)C)cc1C2 (stereo not given),7%&5%
C#C[C@]1(O)CC[C@H]2[C@@H]3CCC4=Cc5oncc5C[C@]4(C)[C@H]3CC[C@@]21C,4%

# Compounds from the list above that contain an aryl methoxy group:
Compound,EPAC2 antag
CCc1nc2cc(C(=O)N3CCCN(C=O)CC3)cc(NC(=O)c3ccccc3OC)c2n1C,-26%
COc1cccc(-c2ccc3ncnc(Nc4ccccc4)c3c2)c1,-25%
COc1c2occc2cc2ccc(=O)oc12,16%&-17%&-12%

# Next section.
Compound,EPAC2 antag
CC(C)(C)C(=O)OCOC(=O)[C@@H]1N2C(=O)[C@@H](NC(=O)[C@H](N)c3ccccc3)[C@H]2SC1(C)C,?
COCCn1c(=O)c(-c2ccccc2)nc2cnc(Oc3cccc(Cl)c3)nc21,-5%
COC(=O)c1c(OCc2ccccc2)cc(=O)n2c1CCN(Cc1cccc(C)n1)CC2,?
CCCC1(C)C(C#N)(C#N)C1(C#N)C#N,14%
COc1cccc(CNC(=O)c2c(OC)cc(=O)n3c2CCN(C(=O)c2ccc(C)nc2)CC3)c1,?
COC(=O)C1=C(C)NC(C)=C(C(=O)OCCSc2ccccc2)[C@@H]1C,?
Cc1ncc2c(c1CNC(=O)c1ccc3c(c1)OCO3)CCN(C(=O)c1scc3c1CCCC3)C2,7%
O=c1[nH]c(=O)n(C2CCCO2)cc1F (stereo not given),-15%
COc1cccc(-c2nccc(NCc3cccs3)n2)c1,?
C=C1C(CCl)(CCl)C2(Cl)C(Cl)C(Cl)C1(Cl)C2(Cl)Cl (stereo not given),-23%
COc1ccc(-c2nc3cnc(Oc4ccccc4)nc3n(Cc3cccs3)c2=O)cc1,-17%
CC(=O)Oc1ccc2c(c1)CCC1C2CC[C@]2(C)C(OC(C)=O)CCC12 (stereo not given in full),-21%
Clc1ccc(/C=C/c2ccc3ccccc3n2)cc1Cl,13%
O=c1cnc2cnc(N3CCOCC3)nc2n1CCc1ccccc1,10%
CCC1NC(=O)c2cc(S(N)(=O)=O)c(Cl)cc2N1 (stereo not given),?
N#Cc1cccc(NC(=O)N2CC3(CCN(C(=O)c4ccco4)CC3)C2)c1,-11%
COc1ccccc1CCNc1ncnc2sc(C(=O)N3CCCN(C=O)CC3)c(C)c12,-18%
COC(=O)CCC[N+](C)(C)C,10%
CN(C)c1ccc(C=O)cc1Cl,-12%
O=C(Nc1ccccc1)O[C@@H]1C[C@H]2CCCC(=O)N3CC[C@@H](C1)[C@@H]23,1%
NCCCCCCCCCCN,3%
O=C1C(=O)c2ccccc2C(O)=C1C1CCC(c2ccc(Cl)cc2)CC1 (stereo not given),-19%[56.6 µM]
O=C(NCC1Cc2cc(F)cc(-c3cnccn3)c2O1)C1COc2ccccc2O1 (stereo not given),11%
COc1ccc(OC)c(-c2ccc(O)c(CN3CCc4c([nH]c5ccccc45)C3)c2)c1,29%
Oc1ccc(-c2nc(-c3ccc(F)cc3)c(-c3ccncc3)[nH]2)cc1,?
COc1ccc(-c2nc3cnc(OC)nc3n(CCC#N)c2=O)cc1,-22%
NC(=Nc1ccccc1)Nc1ccccc1,?
CN(Cc1ccco1)c1ncncc1-c1cccnc1,-2%
CCCCCCCCCCCCCCCC(=O)OC[C@H](O)[C@H]1OC(=O)C(O)=C1O,27%
COCC(=O)Nc1cc(C(=O)N2CCN(C)C(c3ccccc3)C2)c2c(c1)nc(-c1ccncc1)n2C (stereo not given),3%
CCCCCC(O)c1cccc(OCc2ccc3ccccc3n2)c1 (stereo not given),?
CCC1CN(CC(=O)N(C)Cc2nc3ccccc3[nH]2)Cc2cc(OC)ccc2O1 (stereo not given),-1%
Cc1ccccc1-c1nccc(NCc2cccnc2)n1,?
COc1ccccc1-c1ccc2ncnc(NCCN3CCOCC3)c2c1,-16%
COc1ccc(/C=N/NC(=O)c2ccncc2)c(C(=O)O)c1OC,4%
O=c1cnc2cnc(Oc3ccccc3)nc2n1Cc1cccs1,13µM*
COc1ccc2c(c1)OC(C)CN(CCNC(=O)c1cc3cc(F)ccc3[nH]1)C2 (stereo not given),-8%
Cc1ccccc1-c1nc(N2CCN(C)CC2)c2ccccc2n1,-19%
C[C@]12CCC(=O)C=C1CC[C@@H]1[C@@H]2[C@@H](O)C[C@@]2(C)[C@H]1CC[C@]2(O)C(=O)COC(=O)CCC(=O)O,23%
COc1ccccc1CCn1c(=O)c(-c2ccc(Cl)cc2)nc2cncnc21,?

# Overlap with the part before: 3 entries, followed by the next part.
Compound,EPAC2 antag
Cc1ccccc1-c1nc(N2CCN(C)CC2)c2ccccc2n1,-19%
C[C@]12CCC(=O)C=C1CC[C@@H]1[C@@H]2[C@@H](O)C[C@@]2(C)[C@H]1CC[C@]2(O)C(=O)COC(=O)CCC(=O)O,23%
COc1ccccc1CCn1c(=O)c(-c2ccc(Cl)cc2)nc2cncnc21,?
Nc1nc2c([nH]c(=S)n2C2OC(CO)C(O)C2O)c(=O)[nH]1 (stereo not given),-1%
COc1ccc(-c2coc3cc(O)ccc3c2=O)c(OC)c1O,-6%
Nc1nc2c(c(=O)[nH]1)N(C=O)C(CNc1ccc(C(=O)NC(CCC(=O)O)C(=O)O)cc1)CN2 (stereo not given),-8%
CC1CN(CCC(=O)N2CCCC(C(=O)c3nccn3C)C2)Cc2cc(Cl)ccc2O1 (stereo not given),1%
C[C@](N)(Cc1ccc(O)cc1)C(=O)O,-11%&4%
CCOC(=O)[C@@H](N)CS,?
COc1ccc(CNc2ncnc3ccc(-c4ccccc4CN(C)C)cc23)c(OC)c1,-38%
CCc1c(C(=O)NCCc2ccc(N3CCCCC3)cc2)[nH]c2ccc(Cl)cc12,10%

# 4 of the compounds above, as labelled records.
C[C@](N)(Cc1ccc(O)cc1)C(=O)O
  EPAC2 antag: -11%&4%
CCOC(=O)[C@@H](N)CS
  EPAC2 antag: ?
COc1ccc(CNc2ncnc3ccc(-c4ccccc4CN(C)C)cc23)c(OC)c1
  EPAC2 antag: -38%
CCc1c(C(=O)NCCc2ccc(N3CCCCC3)cc2)[nH]c2ccc(Cl)cc12
  EPAC2 antag: 10%

# Carrying on.
Compound,EPAC2 antag
CN1C(=O)CC(c2ccccc2)C1=O (stereo not given),177%[activator]
COc1cc2c(cc1O)CC[C@@H]1[C@@H]2CC[C@]2(C)[C@@H](O)CC[C@@H]12,?
COc1cc(C(=O)N(Cc2cc3ccc(C)cc3nc2N(C)C)C2CC2)cc(OC)c1OC,?
O=C(c1ccco1)N1CCC2(CCCN(c3ncccn3)C2)CC1,-19%
NC(=O)c1ncn([C@@H]2O[C@H](CO)[C@@H](O)[C@H]2O)c1N,-34%
COC(=O)c1cc(-c2c(-c3cc(OC)c(OC)c(OC)c3)noc2C)cc([N+](=O)[O-])c1,-31%
CC(=O)c1ccccc1C(=O)NCC1Cc2cccc(-c3cccnc3)c2O1 (stereo not given),-22%
COc1ccccc1-c1nc2cc(C(=O)NC[C@H]3CCc4ccccc4O3)cc(NC(C)=O)c2n1C,-17%

# More structures
smiles	EPAC2 antag
CCNc1ncc2nc(-c3ccccc3)c(=O)n(Cc3ccc(F)cc3)c2n1	-23%
O=C(Cn1c(=O)sc2ccc(Cl)cc21)N1CCN(CCO)CC1	11%
Cn1ccc(C(=O)NCC2CCC3(CCN(Cc4cc(F)cc(F)c4)CC3)O2)n1 (stereo not given)	-9%
O=c1[nH]c2ccccc2n1CCCN1CCN(C(c2ccccc2)c2ccccc2)CC1	-12%
Cc1noc(C)c1C(=O)N1CCC2(CC1)CCN(c1ccccn1)CC2	-18%
Cn1cccc1C(=O)N1CCC[C@@]2(CCN(c3ncccn3)C2)C1	-13%
Cc1cc(C(=O)NCC2Cc3cccc(-c4cncnc4)c3O2)c(C)o1 (stereo not given)	-22%
Cn1cccc1C(=O)N1CCC[C@@]2(CCN(Cc3ccccc3)C2)C1	-22%
N[C@@H](C(=O)O)[C@@H](CC(=O)O)c1ccc(Cl)cc1	1%
COc1cc(CN2CCC3(CCC(CNC(=O)c4ccccc4)O3)CC2)cc(OC)c1 (stereo not given)	5%
CC1(S(=O)(=O)O)CC(=O)c2ccccc2C1=O (stereo not given)	-4%
Nc1ccc(S(=O)(=O)Nc2ccc(Cl)nn2)cc1	1%
COC(=O)c1cn([C@@H]2C[C@@H](C(=O)N3CCCCCC3)N(Cc3cc4ccccc4s3)C2)nn1	?
O=C(NCC1Cc2cc(-c3cncnc3)cc(Cl)c2O1)c1cccc(Cn2cccn2)c1 (stereo not given)	-21%
CC1(C)S[C@@H]2[C@H](NC(=O)C(c3ccccc3)S(=O)(=O)O)C(=O)N2[C@H]1C(=O)O (stereo not given in full)	47%[activator]
CC(NC(=O)C1CCOCC1)c1nnc2n1CCN(Cc1ccc(F)cc1)CC2 (stereo not given)	-17%
NC(Cc1c[nH]c2ccccc12)C(=O)NCC(=O)O (stereo not given)	1%
CCNc1ncc2nc(-c3cccs3)c(=O)n(Cc3cccc(OC)c3)c2n1	5%
COc1ncc2nc(C)c(=O)n(CCC#N)c2n1	-7%
COc1cc(=O)n2c(c1C(=O)NCc1nccs1)CCN(Cc1ccccc1F)CC2	-35%
NC(N)=NCCC[C@H](NC(=O)[C@@H](N)Cc1ccc(O)cc1)C(=O)O	4%[11.4 µM]
C[C@@H]1CCC(=O)N(CC[C@H](Sc2ccc(Br)cc2)c2ccccc2)CC1	?
CCN(CC)CCCN(c1ccccc1)C1Cc2ccccc2C1	-10%&2%
COc1c2c(nc3ccccc13)OC(C(C)(O)CO)C2 (stereo not given)	-3%
CC(C)N1C[C@@H](NCc2ccccc2O)C[C@H]1C(=O)N1CCN(c2cccc(C(F)(F)F)c2)CC1	13%
CCCCCCCCCCCCC(=O)N1CCCC[C@H]1CNC(=O)[C@@H](N)CCCCN	-17%
CC/C(=C/c1ccccc1)c1cc(Oc2ccccc2)cc2oc3ccccc3c12	-16%
CC(=O)N[C@H](C(=O)O)C(C)(C)SN=O	1%
CC(O)C(=O)O (stereo not given)	-15%
COC(=O)C(N)Cc1ccc(Cl)cc1 (stereo not given)	-18%
CCc1cc(S(=O)(=O)O)c2cc(C(C)C)cccc1-2	-5%
O=C(c1ccco1)N1CCC2(CC1)CCN(c1ccccc1)CC2	-18%
CN(C)C(=O)c1ccc(-c2cncnc2NCc2cccnc2)cc1	-24%
O=C(NCC1CCC2(CCN(Cc3cccn3-c3ccc(Cl)cn3)CC2)O1)c1ccccc1 (stereo not given)	-2%
COC(=O)c1cc(CNC(=O)c2ccc3ccccc3n2)cc(NC(=O)c2cccc(OC)c2)c1	-14%
COC(=O)C1CCN(Cc2ccc3c(c2)CN(C(=O)c2ncc(C)[nH]2)CCO3)CC1	-8%
Cn1cnnc1Sc1ccc(CN2CCOc3ccc(C4=CCCCC4)cc3C2)o1	-3%
O=c1ccn(C2OC(COP(=O)(O)OP(=O)(O)OP(=O)(O)O)C(O)C2O)c(=O)[nH]1 (stereo not given)	-9%
COc1ccccc1C(=O)O[C@H]1[C@H](Cc2ccccc2)NS(=O)(=O)[C@H]2C[C@@H]3C=C[C@]12O3	?
CCCC(=O)OC[C@@H](OC(=O)CCC)[C@@H](OC(=O)CCC)[C@H](Cn1c2nc(=O)[nH]c(=O)c-2nc2cc(C)c(C)cc21)OC(=O)CCC	119%[activator]
Cc1c(C(=O)NCC(C)(C)CN(C)C)cnn1-c1nccc(-c2ccccc2F)n1	1%
O=C(NCCc1ccccn1)C1CC12CCN(C(=O)c1ccc(F)cc1Cl)CC2 (stereo not given)	-29%
Cc1noc(C)c1C(=O)N1CCC[C@@]2(CCN(c3cccc(-c4ccccc4)c3)C2)C1	-21%
Cn1cccc1C(=O)N1CCC2(CC1)CCN(c1ccccn1)CC2	-20%
N#C/C(=C\c1ccc(O)c(O)c1)C(=O)NCCc1ccccc1	-1%
N#CCCn1c(=O)c(-c2cc(F)cc(F)c2)nc2cnc(Oc3ccccc3)nc21	3%
CCC1COCCS(=O)(=O)N1Cc1ccc(F)cc1 (stereo not given)	-17%

# Source: PubChem BioAssay (National Center for Advancing Translational Sciences (NCATS))
